PrP 5UTR inh: suppresses PrP 5' UTR mRNA reporter expression; 340,000 compounds, 0.35% hits; cell-based PrP 5' UTR mRNA reporter, plate reader; inhibition, % (concentration not given with the values);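 active = every replicate at 50% or more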;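 also: 0 = median of the neutral control wells; tested in H4 reporter cells; numbers are from one replicate; inactives centre near -14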
BJeLR lethal: BJeLR cell viability loss; AID 1554; inhibition, % (no concentration beside the values); 300,000 compounds, 0.17% hits; BJeLR (HRASV12) viability, CellTiter-Glo ATP luminescence, 48 h; reference of the scale not given here;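 active = replicate mean above 50%; inconclusive = above 50% but judged a plate artefact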;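 also: 50 nL library stock added to about 25 µL; numbers are from one replicate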
Sa RN4220 lethal: kills Staphylococcus aureus RN4220 | 330,000 compounds, 0.33% hits | S. aureus RN4220 growth, OD600, 16 h | inhibition, % (test concentration not listed);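 active = z-score of -3 or lower and OD600 up to 0.18 on both plates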;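 also: plate controls were untreated cells for no effect and reference antibiotic for full effect; stock transfer was 100 nL into about 80 µL; one replicate is shown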
Bead autofluor: flagged as autofluorescent in microsphere protease counterscreen | 360,000 compounds, 3.1% hits | compound autofluorescence counterscreen, microsphere flow cytometry; stronger effect = higher value | fluorescence intensity (concentration not given with the values);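 active = at least 3 SD above the mean of all compounds, about 16000 in these data; inconclusive = too few beads counted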;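 also: 100 nL of 1 mM stock went into each well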
Sa ugtP lethal: kills S. aureus RN4220 lacking UgtP | S. aureus RN4220 ugtP deletion, OD600 growth, 16 h; some inactives read as strong as hits | growth inhibition, % (test concentration not listed) | 330,000 compounds, 0.54% hits | AID 1259309;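 active = z-score under -3 and OD600 up to 0.15 on both plates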;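 also: plate controls were untreated wells for no effect and antibiotic for full effect; wells of about 80 µL received 100 nL stock; the first replicate is given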
Mtb hypoxia rep: reduces hypoxia-regulated biosensor signal in M. tuberculosis. M. tuberculosis hypoxia-regulated fluorescent reporter, fluorescence. fluorescence inhibition, % (no concentration beside the values). 300,000 compounds, 0.1% hits. AID 1159583;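 active = 35 to 45% if threefold the growth effect, above 45% if 1.5-fold the growth effect; inactive = the rest, general growth blockers included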;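 also: wells of about 50 µL received 100 nL stock; 0% = vehicle wells and 100% = reference inhibitor wells; whole bacteria with a GFP reporter of the hypoxia response; strong numbers were not always called active; many hits fall short of the cut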
Mtb hypoxia rep growth: further read-out of Mtb hypoxia rep, marked with its call; growth inhibition, %; measured here: M. tuberculosis growth (absorbance);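 0% = vehicle and 100% = reference antibiotic; read after six days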
An asterisk follows results filed as active; ? = inconclusive; . = not tested or not shown.

Each structure is followed by: Mtb hypoxia rep growth	Sa RN4220 lethal	BJeLR lethal	PrP 5UTR inh	Sa ugtP lethal	Bead autofluor	Mtb hypoxia rep
> Cc1ccc(C(=O)N[C@H](C(=O)Nc2ccc(F)cc2)C(C)C)cc1
    2	-0.9	-16	-19	1	3682	-2
> CC(=O)Nc1ccc(C(=O)COC(=O)CN2C(=O)NC3(CCCCC3C)C2=O)cc1 (stereo not given)
    -3	-0.3	.	-10	-7	2951	-2
> COc1ccc(-c2nnc(NC(=O)c3cc(Cl)ccc3Cl)o2)cc1
    1	7.0	-6	-4	100*	5530	2
> CCOC(=O)COc1ccc(S(=O)(=O)Nc2cccc(SC)c2)cc1
    2	-0.1	9	-6	-13	21447*	-16
> O=C(/C=C/c1ccc(S(=O)(=O)N2CCOCC2)cc1)N1CCCCC1
    0	3.1	.	-21	8	4061	-5
> S=C(NN=C1C2CC3CC(C2)CC1C3)Nc1ccccc1
    .	0.2	-2	-4	5	4749	.
> O=C(CN(C(=O)CCC(=O)Nc1ccccn1)c1ccc2c(c1)OCO2)NCc1ccc(F)cc1
    1	1.1	5	-16	3	3280	3
> CCN(CC)c1nc2ccccc2[nH]1
    8	19	0	-5	-2	4076	9
> CCc1ccc(NC(=O)C2CCCCC2C(=O)O)cc1 (stereo not given)
    3	8.0	5	7	7	11308	6
> COc1ccc(S(=O)(=O)CCC(=O)N(C)c2ccc(OC)cc2OC)cc1
    10	-0.4	7	6	-6	10574	-2

Next section, overlapping the part above by 2 compounds.
Each structure is followed by: Mtb hypoxia rep growth	Sa RN4220 lethal	BJeLR lethal	PrP 5UTR inh	Sa ugtP lethal	Bead autofluor	Mtb hypoxia rep
> CCc1ccc(NC(=O)C2CCCCC2C(=O)O)cc1 (stereo not given)
    3	8.0	5	7	7	11308	6
> COc1ccc(S(=O)(=O)CCC(=O)N(C)c2ccc(OC)cc2OC)cc1
    10	-0.4	7	6	-6	10574	-2
> COC(C(=O)N1CCC(CCC(=O)Nc2ccccc2)CC1)c1ccccc1 (stereo not given)
    -1	1.7	10	-28	8	6299	3
> COc1ccc(C/C(C)=N\NC(=O)c2cn(C)c3ccccc23)cc1OC
    .	.	0	-22	.	5695	.
> O=C(c1ccco1)N1C2C=CC(C2)C1(C(F)(F)F)C(F)(F)F (stereo not given)
    .	4.3	-1	-20	13	2654	.
> CC(=O)Nc1nc2cc3c(cc2s1)OCO3
    11	-11	3	-34	3	5451	4
> CCCn1c(SCCN2C(=O)c3ccccc3C2=O)n[nH]c1=O
    5	7.4	9	-27	1	12829	10
> COc1ccc(-c2cc(C(=O)N(C)CC(=O)Nc3ccccc3C(F)(F)F)c3ccccc3n2)cc1OC
    37	2.3	.	-5	2	3746	5
> CCNC(=O)c1ccccc1-c1nc(-c2ccccc2)no1
    3	3.4	-7	-6	5	4351	10
> COCC1CCN(C(=O)c2cc(COc3ccc(C)c(C)c3)on2)C1 (stereo not given)
    9	5.7	0	-11	5	5045	12
> O=C(COC(=O)CSc1ccc([N+](=O)[O-])cc1)NCc1cccs1
    4	0.0	1	-16	5	?	10
> Cc1ccc(S(=O)(=O)N(C)CC(=O)OCC(=O)N2CCN(c3ccccc3)CC2)cc1
    0	4.5	0	-21	0	?	3

Whole records, quoted from the list:
Results for COc1ccc(-c2cc(C(=O)N(C)CC(=O)Nc3ccccc3C(F)(F)F)c3ccccc3n2)cc1OC : Mtb hypoxia rep growth = 37; Sa RN4220 lethal = 2.3; BJeLR lethal = .; PrP 5UTR inh = -5; Sa ugtP lethal = 2; Bead autofluor = 3746; Mtb hypoxia rep = 5
Results for CC(=O)Nc1nc2cc3c(cc2s1)OCO3 : Mtb hypoxia rep growth = 11; Sa RN4220 lethal = -11; BJeLR lethal = 3; PrP 5UTR inh = -34; Sa ugtP lethal = 3; Bead autofluor = 5451; Mtb hypoxia rep = 4

Later entries
Each structure is followed by: Mtb hypoxia rep growth	Sa RN4220 lethal	BJeLR lethal	PrP 5UTR inh	Sa ugtP lethal	Bead autofluor	Mtb hypoxia rep
> CCOC(=O)C1CCCN(C(=O)CCn2nc(-c3ccccc3)ccc2=O)C1 (stereo not given)
    3	2.7	1	1	1	2584	5
> COc1ccc(/C=N/NC(=O)CNS(=O)(=O)c2ccc(C)cc2)cc1
    .	.	-4	-11	.	4959	.
> COc1ccc(NS(=O)(=O)c2cccc(C(=O)NCC3(N(C)C)CCCCC3)c2)cc1
    -2	4.6	18	-7	13	?	7
> COC(=O)c1cccc(NC(=S)NC(C)C)c1
    -2	0.8	4	-19	1	3935	11
> CN1CCCC1c1ccc(=O)[nH]c1 (stereo not given)
    7	6.3	.	-26	4	3745	10
> COc1ccc(NC(=S)N2CCN(c3ncccn3)CC2)c(OC)c1
    -7	-1.3	8	-25	-3	3500	-1
> COCc1cc(=O)[nH]c(/N=C(\N)Nc2cccc(C)c2)n1
    .	.	-6	-17	.	4297	.
> C/C(=N\NC(=O)CSCc1ccccc1Br)c1cccc([N+](=O)[O-])c1
    .	.	-2	-31	.	9196	.
> COc1ccc(NC(=O)C(C)N2C(=O)c3ccccc3S2(=O)=O)c(OC)c1 (stereo not given)
    6	2.8	1	-34	4	?	8
> CCOC(=O)c1c(-c2ccc(OC)cc2)csc1NC(=O)C1CCCO1 (stereo not given)
    11	1.5	-11	-1	61	2593	6
> CC12C(=O)N(n3cnnc3)C(=O)C1C1C=CC2C1 (stereo not given)
    5	3.3	6	-19	2	10357	4
> COc1ccc(Nc2ncccc2C(=O)O)cc1
    5	15	-3	-37	2	11479	9
> COC(=O)c1ccc(N(C(=O)CNC(=O)c2ccco2)C(C(=O)NCC2CCCO2)c2ccc(OC)c(OC)c2)cc1 (stereo not given)
    -2	0.5	4	8	4	3864	14
> CCc1ccc(N(C(=O)c2csnn2)C(C(=O)NC(C)(C)C)c2cccnc2)cc1 (stereo not given)
    9	1.8	.	-17	1	4082	18
> COc1ccc2c3c1OC1C(O)C=CC4[C@@H](C2)N(C)CC[C@]314 (stereo not given in full)
    .	1.0	.	-16	-2	5891	.
> CCOc1ccc(C(=O)C(C)OC(=O)CN2C(=O)NC(C)(C)C2=O)cc1 (stereo not given)
    3	0.7	-7	-21	-1	6777	8
> CN(C)S(=O)(=O)N1CCC(C(=O)O)(c2ccccc2)CC1
    11	2.9	-15	-27	1	10193	7
> CCCCC1CCC(c2nc(-c3ccccn3)no2)CC1 (stereo not given)
    .	15	-4	51	86	2198	.
> O=C(NNC(=O)c1ccccc1C(F)(F)F)c1csc(N2CCOCC2)n1
    11	0.5	-1	-8	-3	5883	5
> COC(=O)C1=C(C)N(CCc2ccccc2)C(=O)/C1=C\c1ccco1
    4	4.8	10	-10	24	8032	3
> CC1(C)CC(=O)CC2(C1)NCC(c1ccccc1Cl)c1c2[nH]c2ccccc12 (stereo not given)
    4	11	9	-64	5	4526	17
> O=C(NCCCN1CCN(C2CCCCC2)CC1)Nc1ccccc1C(F)(F)F
    .	4.3	-4	-5	2	3698	.
> O=C(CCc1ccccc1)N1CCN(S(=O)(=O)c2cccs2)CC1
    0	3.0	-11	-3	1	5187	0
> COc1ccccc1CNC(=O)c1cc(-c2ccccc2)nn1Cc1cc(C)no1
    6	2.1	13	-7	3	3680	5
> CC(C)N(C(=O)[C@H]1C[C@H](CC(=O)NC(C)(C)C)C(=O)N2CCc3c([nH]c4ccc(Cl)cc34)[C@]12C)C(C)C
    -4	0.7	.	-10	-12	3772	-14
> Cc1ccc(OCC(=O)NCCc2nc3ccccc3[nH]2)c(C)c1
    5	4.3	4	-19	1	4875	0
> N#CC1=C(N)Oc2n[nH]c(-c3ccc(F)cc3)c2C1c1cccnc1 (stereo not given)
    .	.	-10	-20	.	2813	.
> COc1cccc(NC(=O)c2ccc3c(SCC(=O)O)c4c(nc3c2)CCCC4)c1
    11	1.6	15	-12	7	3328	4
> CCN(CC)CCNC(=O)c1c(O)c2c([nH]c1=O)CCCC2
    11	0.6	2	-29	8	7995	14
> C=CCN(C(=O)Nc1ccc(OC)cc1)c1nnc(-c2ccncc2)s1
    .	.	-3	-18	.	4273	.
> CCO[C@@H]1OC(C(=O)N2CCN(C)CC2)=C[C@H](C2CCCCC2)[C@H]1CCCO
    .	.	-7	-12	.	3601	.
> COc1ccc(CN2CC(C(=O)NCCCN3CCCCC3)CC2=O)cc1 (stereo not given)
    4	1.2	0	-9	2	5421	0
> CC(=O)c1cnc(Nc2ccc(C)cc2)s1
    10	2.6	-5	-52	1	4690	-1
> Cc1cccc(NC(=O)CNC(=O)Cn2cc(C(F)(F)F)cc(Cl)c2=O)c1C
    1	4.1	.	-120	7	5449	7
> Cc1csc(C(=O)O)c1NC(=O)c1cccc([N+](=O)[O-])c1
    16	1.4	-4	-14	-3	4389	2
> CC(C)CNC(=O)CSc1nc2scc(-c3ccccc3)c2c(=O)[nH]1
    7	11	-3	-30	12	9348	9
> CCC1(C(=O)OC)NC(c2ccco2)C2C(=O)N(c3ccc(C)cc3)C(=O)C21 (stereo not given)
    -1	-0.8	-3	-17	13	9895	1
> O=C(c1cccc(Cl)c1)N1CCCC(C(=O)N2CCN(c3ccccc3)CC2)C1 (stereo not given)
    -8	4.6	-1	-15	13	5649	1
> Cc1cccc(OCC(=O)N/N=C/c2ccccc2C(=O)O)c1
    .	.	1	-1	.	3254	.
> CC(=O)Nc1ccc(C2=NN(c3ccccc3)C(c3ccccc3)C2)cc1 (stereo not given)
    10	-2.0	-3	-3	21	3919	-9
> CSC1=C(C#N)C(=O)NC(c2ccc(Cl)cc2)S1 (stereo not given)
    15	1.1	6	-10	-2	4440	4
> CCCCC(=O)NC(c1ccc(Cl)cc1)c1ccc2cccnc2c1O (stereo not given)
    .	.	30	28	.	3621	.
> CCOC(=O)N1CCN(CCC(=O)Nc2cc([N+](=O)[O-])ccc2OC)CC1
    -2	4.7	-1	-8	9	2425	-13
> Cc1cc2cc(CNS(=O)(=O)c3ccc4ccccc4c3)ccc2n1C
    12	-8.2	3	-6	-11	2284	3
> CCOc1ccc([N+](=O)[O-])c(N)c1
    -2	2.9	3	-3	0	2080	8
> CSc1nnc(-c2cc3ccccc3cc2O)n1C
    .	2.7	.	-14	6	4302	.
> O=C(CCS(=O)(=O)c1ccccc1)NCc1ccccc1
    -1	7.5	2	-5	17	5060	5
> Nn1c(CSc2nc3ccccc3o2)nnc1CSc1nc2ccccc2o1
    .	-11	.	-12	-8	2613	.
> O=C(Nc1ccnn1C1CCN(Cc2c[nH]c3ccccc23)CC1)c1ccccc1
    11	0.3	-3	-28	2	5039	12
> CCn1c(SCC(=O)OC(C)C)nnc1-c1ccccc1OC
    0	1.4	3	-10	5	4121	9

More entries follow:
Each structure is followed by: Mtb hypoxia rep growth	Sa RN4220 lethal	BJeLR lethal	PrP 5UTR inh	Sa ugtP lethal	Bead autofluor	Mtb hypoxia rep
> CC(C)Oc1ccc(C(=O)NCC(=O)Nc2ccc3c(c2)CCC3)cc1
    -3	-3.0	.	-19	3	7755	-3
> O=S(=O)(c1cccc(-c2nnc(SCc3ccc(Cl)cc3)o2)c1)N1CCCCC1
    0	-1.7	1	-13	-4	2805	-2
> CC1CCCN(C(=O)c2cccc(S(=O)(=O)Nc3cc(C(F)(F)F)ccc3Cl)c2)C1 (stereo not given)
    7	-2.3	6	-7	18	2447	1
> CCOc1ccccc1NC(=S)N(Cc1cc2ccc(C)cc2[nH]c1=O)CC1CCCN1CC (stereo not given)
    7	2.1	-10	-20	3	3345	4
> Nc1c(C(=O)c2ccc(Cl)cc2)oc2ccccc12
    2	2.1	-5	-15	-6	2088	3
> CCS(=O)(=O)N1CCN(C(=O)c2cccs2)CC1
    17	4.4	-4	-27	4	4030	11
> CN(CC(=O)Nc1cccc(S(=O)(=O)N2CCCCC2)c1)Cc1ccc(F)cc1
    4	9.5	.	-5	5	3804	3
> COc1cccc(-c2csc(NC(C)=O)n2)c1
    .	1.8	4	-66	-6	5838	.
> O=C1C(=Cc2ccco2)Oc2c1ccc(O)c2CN1CCCCC1
    0	6.4	.	.	-1	.	5
> CCC(C)[C@H](NC(=O)C1CC(=O)N(c2ccc(OC)cc2)C1)C(=O)NC1CCCC1 (stereo not given in full)
    5	2.8	-14	-6	6	5680	1
> CCN(CC)C(=O)c1ccc(NC(=O)COC(=O)c2ccc(Cl)s2)cc1
    9	6.3	.	-7	8	8103	12
> Cc1cnc(NC(=O)c2ccc(F)c(S(=O)(=O)N3CCOCC3)c2)s1
    7	1.9	.	-12	-1	4153	-4
> COC(=O)N1C(=O)[C@@](c2ccccc2)(C2CCCC2)N1C(=O)OC
    4	8.8	-10	-17	7	3877	11

Screening results from PubChem BioAssay.
